Screening results (PubChem)
TRPML1 inh – qHTS for Inhibitors of the Human Mucolipin Transient Receptor Potential 1 (TRPML1); AID 624415, 2012; 390,000 compounds, 0.02% hits; TRPML1-inducible cells, Ca2+ dye fluorescence, FDSS; hits give low values; inhibition of EC80 agonist-evoked calcium signal; activity change, negative = inhibition, % (test concentration not listed); in the data active means activity change below about -50%; inconclusive means about -30% to -50%; inactive means above about -30%;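 also: stimulus is agonist 54-4 at its EC80 concentration; % is scaled to controls: 0 for no effect and ±100 for the full control effect; compound concentration not given in the record; the text of the record puts the active cut at -80%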
Target sequence (Q9GZU1 whole entry, looked up): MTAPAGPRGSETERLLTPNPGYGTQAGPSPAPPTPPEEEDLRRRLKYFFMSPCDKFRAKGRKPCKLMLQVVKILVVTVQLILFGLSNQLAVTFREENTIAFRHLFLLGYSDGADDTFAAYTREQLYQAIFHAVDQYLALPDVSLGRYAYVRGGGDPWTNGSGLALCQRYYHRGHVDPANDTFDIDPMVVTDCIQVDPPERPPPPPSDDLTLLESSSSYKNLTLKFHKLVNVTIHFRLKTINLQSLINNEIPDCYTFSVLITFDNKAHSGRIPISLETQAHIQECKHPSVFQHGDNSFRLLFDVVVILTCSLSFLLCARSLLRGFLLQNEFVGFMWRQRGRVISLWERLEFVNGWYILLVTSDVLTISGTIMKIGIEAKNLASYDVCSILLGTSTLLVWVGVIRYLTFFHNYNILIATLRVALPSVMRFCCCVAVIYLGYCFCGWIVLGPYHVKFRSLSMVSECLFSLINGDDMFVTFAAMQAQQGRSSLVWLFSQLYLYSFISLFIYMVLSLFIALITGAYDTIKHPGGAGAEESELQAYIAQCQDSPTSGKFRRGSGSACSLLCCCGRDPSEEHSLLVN
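Calcium fluorescence in TRPML1-DL cells induced overnight with Tet: a 110 s read after compound pin addition, then a 110 s antagonist read after challenge with 54-4 at 4 uM final (EC80).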
ClpP mod – qHTS Assay for Activators of ClpP; ATP-dependent Clp protease proteolytic subunit (Bacillus subtilis (strain 168)), P80244; purified B. subtilis ClpP, FRET peptide cleavage, 20 min; Potency, µM (series often up to 57.5 µM), inactives show top-dose activity change, negative = active; 340,000 compounds, 1.9% hits; AID 651965, 2013; active = well fitted falling curve with a large enough effect; inconclusive = small, poorly fitted or top-dose-only effect; inactive = no such curve, though single readings can be large or run the other way; also: potency is read from the fitted curve at half-maximal effect; the source files actives as falling curves though it sought activators and does not explain the sign; nearly all actives have a fitted effect of over 65% in size; many hits overshoot -100%
Target sequence (P80244 whole entry, looked up): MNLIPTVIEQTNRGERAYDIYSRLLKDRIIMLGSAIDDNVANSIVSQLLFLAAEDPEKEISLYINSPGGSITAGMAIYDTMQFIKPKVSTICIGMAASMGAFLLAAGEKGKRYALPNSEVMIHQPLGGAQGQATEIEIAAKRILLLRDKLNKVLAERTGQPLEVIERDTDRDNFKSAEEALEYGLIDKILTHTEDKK
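Purified B. subtilis ClpP, 10 microg/mL final in Tris/HCl pH8 with KCl, BSA, glycerol and Tween-20, cleaved an Abz/nitrotyrosine-quenched decapeptide. Fluorescence (ex 320, em 430) was read at 0 and 20 min at room temperature. Delta was normalized to 5.8 microM ADEP and DMSO/no-enzyme controls.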
Starred values were filed as active, the others as inactive; ? = inconclusive.

Structure | TRPML1 inh | ClpP mod
Cc1cccc(C(=O)Nc2cc(-c3ccccc3F)nn2-c2ccccc2)c1 | 1 | ?
CCSc1ccc(-c2cc(NC=O)c3ncc(-c4cccc(C(=O)N(C)C)c4)n3c2)cc1 | -7 | ?
O=C(Cn1cc(C(=O)c2ccco2)c2ccccc21)Nc1ccc(Br)cc1 | -11 | -16%
COc1ccc(OC)c(S(=O)(=O)Nc2cccc(-c3ccc(N4CCCCC4)nn3)c2)c1 | 26 | 0.4%
Cc1ccc(C)c(CN2C(=O)c3ccccc3S(=O)(=O)c3ccc(C(=O)N4CCN(c5ccccc5)CC4)cc32)c1 | 30 | 1.8%
CCOc1ccc(S(=O)(=O)NCC(c2ccco2)S(=O)(=O)c2cccs2)cc1 (stereo not drawn) | -13 | 1.3%
O=C(Cn1ncc2c1-c1ccccc1OC2)N1CCN(c2ccccc2)CC1 | -6 | -2.3%
O=C(CSc1nc2ccsc2c(=O)n1-c1ccc(Cl)cc1)NCc1ccc(Cl)cc1 | 11 | -2.2%
CCN(CC)C(=O)CSc1nc(-c2ccccc2)cc(-c2ccc(OC)cc2)c1C#N | 7 | ?
COc1ccc(-n2cc(-c3ccccc3)c3c(NCc4cccc(Cl)c4)ncnc32)cc1 | 61 | ?
CCCCCNC(=O)c1cc2c(=O)n3ccccc3nc2n1C | -6 | 4.7%
COc1ccc(CC(=O)Nc2nc(OCCN3CCCC3=O)cnc2-c2cccc(C(F)(F)F)c2)cc1 | -12 | -21%
CCc1sc(Nc2cccc(Cl)c2C)nc1-c1cc2cccc(OC)c2oc1=O | 0 | -0.6%
COc1ccc(N2CCN(C(=O)CCc3nnc4n(C)c(=O)c5sccc5n34)CC2)cc1 | -14 | -1.2%
CCOc1ccc(/C=C/c2nc(C#N)c(N3CCN(c4ccccc4)CC3)o2)cc1 | 21 | 3.9%

Three of these compounds in a different format:
Below each compound – TRPML1 inh	ClpP mod
> CCOc1ccc(/C=C/c2nc(C#N)c(N3CCN(c4ccccc4)CC3)o2)cc1
    21	3.9%
> CCc1sc(Nc2cccc(Cl)c2C)nc1-c1cc2cccc(OC)c2oc1=O
    0	-0.6%
> Cc1ccc(C)c(CN2C(=O)c3ccccc3S(=O)(=O)c3ccc(C(=O)N4CCN(c5ccccc5)CC4)cc32)c1
    30	1.8%

Continuation.
Structure | TRPML1 inh | ClpP mod
O=c1n(Cc2ccc([N+](=O)[O-])cc2)c2ccccc2c2nc(-c3ccccc3)nn12 | 12 | -0.3%
Cc1ccc(CN(Cc2ccco2)C(=O)COc2ccc(Cl)cc2Cl)cc1 | 0 | -3.6%
CCc1ccc(CNC(=O)c2nn(-c3ccc(OC)c(Cl)c3)c(=O)c3c2c2ccccc2n3C)cc1 | -1 | -0.2%
COc1ccc(-n2nc3c(N4CCCC(C(=O)NCc5ccc(C)cc5)C4)nnc(C)c3c2C)cc1 (stereo not drawn) | 61 | ?
CCN(CC)C(=O)c1sc2c(c1C)c(=O)n(CCc1ccccc1)c(=O)n2Cc1cc(C)ccc1C | -2 | -1.4%
COc1ccc(-c2nc(CN3CCC(C(=O)NCCc4ccccc4)CC3)c(C)o2)cc1OC | -8 | -18%
COc1ccc(-c2noc(CC(=O)N(C)c3cccc(C)c3)n2)cc1 | 3 | -0.3%
Cc1c2cnn(CC(=O)Nc3ccc(F)cc3F)c(=O)c2c(C)n1Cc1cccc(Cl)c1 | -11 | -6.4%
O=C(NC1CCCCCC1)c1cc2c(Cl)nc3ccccc3c2s1 | 19 | -2.4%
CCOc1ccccc1C(=O)N(Cc1ccc(N(C)C)cc1)CC1CCCO1 (stereo not drawn) | 4 | -0.4%
COc1ccc(CNC(=O)c2cc3sccc3n2Cc2ccc(C)cc2)cc1 | 25 | -6.9%
Cc1ccc(C)c(S(=O)(=O)Nc2ccc3c(c2)CCCN3C(=O)c2cccs2)c1 | -13 | -0.1%
C[C@H]1CN([C@@H](C)CO)C(=O)CCCn2nncc2CO[C@@H]1CN(C)Cc1cccc(C(=O)O)c1 | -3 | 0.3%
O=C(Cn1c(=O)oc2cc(S(=O)(=O)NC3CCCC3)ccc21)Nc1ccc(F)c(F)c1 | -10 | 1.1%
CCOC(=O)Cn1c(=O)cc(C)c2c(C)nn(-c3cccc(F)c3)c21 | -16 | -8.7%
O=C(Nc1ccc(-c2cn3cccnc3n2)cc1)c1cc(Br)ccc1Cl | 10 | ?
Cc1ccc(C(=O)c2cn(Cc3c(F)cccc3Cl)c3nc(C)ccc3c2=O)cc1 | -5 | -2.9%
Cc1cccc(NC(=O)Cn2cc(S(=O)(=O)N3CCCC3)c(S(=O)(=O)N3CCCC3)c2)c1C | -5 | -3.0%
CC(=O)N1CCCc2cc(S(=O)(=O)N3CCC(C(=O)NCc4ccc(N(C)C)cc4)CC3)ccc21 | -16 | -2.4%
CCN1C(=O)c2ccccc2S(=O)c2ccc(C(=O)NCc3ccc(C)cc3)cc21 (stereo not drawn) | -5 | -0.7%
O=C(CSc1nc(=O)n(CCN2CCOCC2)c2c1CCC2)Nc1ccc(F)cc1F | -9 | -7.2%
CC(C)(C)c1ccc(CN(Cc2ccco2)c2cnc(S(C)(=O)=O)nc2C(=O)Nc2ccc(F)cc2)cc1 | 5 | -2.3%
CCCN(CCC)CCNC(=O)c1nn(C)c2c1CS(=O)(=O)c1ccccc1-2 | -12 | -3.6%
O=C(NCc1ccccc1Cl)c1ccc2c(c1)N(Cc1ccccc1)C(=O)CS2 | 12 | -0.4%
CCOC(=O)c1scc(-c2ccc(C)cc2)c1S(=O)(=O)Nc1ccc(F)c(F)c1 | -12 | 1.0%
COc1ccc(CCNC(=O)c2ccc(Cn3c(=O)c4ccccc4n(Cc4cccc(C)c4)c3=O)cc2)cc1OC | -4 | -1.2%
CC(Oc1ccccc1Cl)C(=O)N1CCN(CCc2ccccn2)CC1 (stereo not drawn) | 63 | -0.2%
COc1ccc(C(=O)N(c2ccc(OC)cc2)S(=O)(=O)c2ccc3c(c2)n(C)c(=O)n3C)cc1 | 10 | -5.5%
COc1cccc2c1cc1c(=O)n(CC(=O)N3CCN(c4cc(Cl)ccc4C)CC3)nc(C)n12 | -19 | ?
COc1ccc(-c2noc(CN(C(=O)Cc3ccc(C)cc3)C(C)C)n2)cc1 | 14 | 1.5%
O=C(Cn1c(=O)n(CC2CCCO2)c(=O)c2ccccc21)Nc1ccc(F)cc1F (stereo not drawn) | -21 | -12%
Cc1ccc(CCNS(=O)(=O)c2ccc3c(c2)CC(C)N3C(=O)C2CCC2)cc1 (stereo not drawn) | -2 | 0.2%
Cc1ccc(NC(=O)Cn2c(=O)n(Cc3ccc(C(=O)NCc4ccc5c(c4)OCO5)cc3)c(=O)c3ccccc32)cc1 | 18 | 22µM*
COc1ccc(Cl)cc1NC(=O)c1cc(C)nn1-c1ccccc1 | -15 | 2.5%
COc1ccccc1-c1noc(-c2ccc(NC3CCCC3)c([N+](=O)[O-])c2)n1 | 10 | 1.4%
COc1cc(Br)c(C2CC(=O)Nc3cc(OC)c(OC)c(OC)c32)cc1OC (stereo not drawn) | -12 | -2.7%
O=C(Nc1ccccc1Cl)C1CCN(c2nc3ccccc3[nH]2)CC1 | 10 | -2.0%
CC1CCN(c2oc(/C=C/c3ccc(F)cc3)nc2C#N)CC1 | -15 | 4.1%
CCOC(=O)Cc1ccc(NC(=O)N2CCSc3ccccc32)cc1 | 0 | -3.7%
Cc1ccc(Cl)cc1N1CCN(C(=O)C2CCN(S(=O)(=O)c3cn(C)cn3)CC2)CC1 | -6 | -0.2%
CCOCCc1nn2c(=O)cc(COC(=O)c3ccc(NC(=O)c4cccs4)cc3)nc2s1 | 3 | -3.9%
O=C(Nc1cnc(N2CCN(c3ccccc3)CC2)c(C(=O)O)c1)c1cccs1 | -10 | -0.3%
Cc1cc(Cl)ccc1NC(=O)C(=O)NCc1ccco1 | -13 | -1.6%
Cc1c(C(=O)Nc2ccccc2Br)oc2ccc(S(=O)(=O)N3CCCCC3)cc12 | -9 | -0.3%
Cc1cccc(C(=O)NC(=O)Nc2ccc(-n3nc(C(F)(F)F)cc3C(F)(F)F)cc2)c1 | -12 | 1.6%
O=C(NCCc1ccccc1)C(=O)NCC(c1cccnc1)N1CCN(c2ccc(F)cc2)CC1 (stereo not drawn) | ? | -3.2%
Cc1ccc(-c2noc(-c3ccc(NCc4cccnc4)c([N+](=O)[O-])c3)n2)cc1 | 2 | 0.2%
Cc1ccc2nc(CSc3nnc(NC(=O)COc4ccccc4F)s3)cc(=O)n2c1 | 21 | -16%
COc1ccccc1-c1cccc(-c2nc(C(=O)N3CCCCC3)cc3c2[C@@H](CCO)N(S(=O)C(C)(C)C)C3)c1 (stereo partly drawn) | -15 | 0.1%
COc1ccc(CNS(=O)(=O)c2cc3c(cc2Cl)N(C(C)=O)CCO3)cc1 | 11 | 1.4%
O=C(NCc1ccccc1Cl)c1ccc(NC(=O)N2CCSc3ncccc32)cc1 | 24 | 28µM*
Cc1cc(OCC(=O)Nc2ncn[nH]2)c(C)c(C)c1Br | -8 | 1.5%
CCOc1cc(C2c3c(-c4ccc(Br)cc4)n[nH]c3C(=O)N2c2ccc(Cl)cc2)ccc1O (stereo not drawn) | -5 | -5.1%
O=C(NCCCN1CCN(c2ccccc2)CC1)c1ccc2nc(Cc3ccccc3)oc2c1 | 12 | -0.8%
Cc1cccc(Cn2c(CN3CCC(C(=O)NC(C)C)CC3)cc3ccccc32)c1 | 1 | 1.8%
CCOC(=O)c1cnc2ccc(OCC)cc2c1N1CCN(c2cccc(Cl)c2)CC1 | -3 | -4.6%
CCOc1ccc(CCNC(=O)Cn2ncn3c(cc4sc(C)cc43)c2=O)cc1OCC | -11 | -0.1%
Cc1ccccc1C(=O)Nc1ccccc1OCc1cc(=O)n2ccccc2n1 | 3 | ?
CC(=O)N1CCc2cc(CNS(=O)(=O)c3ccc(C(C)(C)C)cc3)ccc21 | 11 | -1.7%
Cc1ccc(C)c(CNC(=O)c2ccc3c(c2)nc2n3CCCCC2)c1 | 22 | -0.3%

(continued)
Structure | TRPML1 inh | ClpP mod
COc1ccc(OC)c(CNC(=O)c2nn(C)c3c2CSc2ccccc2-3)c1 | -21 | -0.2%
COc1ccc(CNc2nc3c(S(=O)(=O)c4ccccc4)nnn3c3ccc(Cl)cc23)cc1 | 12 | ?
Cc1ccc(Cc2c(C(C)(C)C)nc3ccc(Br)cn23)cc1 | 6 | -13%
COc1ccccc1CNc1nccn(-c2ccccc2)c1=O | -8 | -12%
COc1cccc(C(=O)n2nc(-c3cccnc3)nc2NCc2ccc(F)cc2)c1 | -8 | 0.5%
CCCSc1ncc(Cl)c(C(=O)N(Cc2ccc(N(C)C)cc2)C2CCS(=O)(=O)C2)n1 (stereo not drawn) | -11 | -2.9%
Cc1ccc(NC(=O)Cn2cc(S(=O)(=O)N3CCCC3)c(S(=O)(=O)N3CCCC3)c2)c(C)c1 | -6 | 0.2%
C=Cc1ccc(Cn2c(C)c(CNCc3ccccc3C)c(C(=O)O)c2C)cc1 | 7 | -1.9%
CCCc1cc(=O)[nH]c(Nc2ccc(C)c(O)c2)n1 | ? | -5.4%
COc1cccc(CNC(=O)C(=O)Nc2ccc3nc4n(c(=O)c3c2)CCCCC4)c1 | -1 | 2.2%
CCOC(=O)c1c(NC(=O)c2ccc(S(=O)(=O)N(C)C)cc2)sc2c1CCN(C)C2 | -7 | -14%
CCOC(=O)c1c(NC(=O)COc2ccc(Br)cc2)sc2c1CCCC2 | 18 | -6.2%
CS(=O)(=O)N(Cc1ccccc1)c1ccc(C(=O)Nc2ccc(Cl)cc2)cc1 | -3 | -0.3%
COc1ccc(NC(=O)c2ccco2)cc1NC(=O)C(C)Oc1ccc(Cl)cc1Cl (stereo not drawn) | 19 | -0.6%
CCC1CN(C(=O)N2CCC(C(=O)NCCc3ccc(OC)cc3OC)CC2)c2cc(C)ccc2O1 (stereo not drawn) | -8 | -1.9%
CCc1ccc(C(=O)c2cn(CC(=O)Nc3ccc4c(c3)OCO4)c3ccc(OC)cc3c2=O)cc1 | 10 | -6.2%
COc1ccc(NC(=O)CSc2nc3nc(C)c(Cc4ccc(C)cc4)c(C)n3n2)cc1OC | 2 | -0.3%
Cc1c(-c2nsc(NC(=O)c3cccc(Cl)c3)n2)nnn1-c1ccccc1C(F)(F)F | -8 | -1.5%
Cc1cc(C)c2c(n1)sc1c(=O)n(-c3ccccc3C(F)(F)F)nnc12 | -17 | -2.9%
COc1ccc(-c2csc3ncnc(Nc4cccc(F)c4)c23)cc1 | -7 | -11%
COc1ccccc1C(=O)Nc1nc2n(n1)C(c1ccc(F)cc1)C=C(c1ccc(Cl)cc1)N2 (stereo not drawn) | 3 | -6.1%
Cc1ccc(CN(C(=O)COc2ccc(F)cc2)C2CCS(=O)(=O)C2)o1 (stereo not drawn) | -10 | 0.8%
Cc1ccc(CNC(C)c2ccccc2)s1 (stereo not drawn) | -10 | -0.5%
COc1ccc(NC(=O)CSC2=Nc3ccccc3C3=NC(CC(=O)NCc4ccc(F)cc4)C(=O)N23)cc1 (stereo not drawn) | 0 | -0.7%
CC(C(=O)NCc1ccccc1)n1ccc2cc(S(=O)(=O)N3CCCC3)ccc21 (stereo not drawn) | -13 | -6.0%

An excerpt; the hit share may differ from the screen's.
